From PubChem BioAssay
D2 agonist: human D2 receptor agonism in beta-arrestin assay; AID 624465; 0.084% of 360,000 active; DiscoveRx PathHunter D2 beta-arrestin, luminescence, 90 min; 100% = 57 uM dopamine signal; P14416; activation, % (concentration not given with the values); in the data active = activation above about 40%; inconclusive = about 15% to 40%; inactive = below about 15%; further: compound concentration not given in the record; the text of the record calls up to 30% inactive
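Agonist mode: compounds alone added to overnight-plated D2 PathHunter cells for 90 min at 37 C, with 57 uM final dopamine (EC100) defining full response. Beta-arrestin recruitment detected by chemiluminescent reagent, read after 1 h at ambient temperature.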
CtBP-E1A blk: inhibitors of CtBP/E1A interaction; AlphaScreen GST-E1A/His-CtBP binding, 1536-well; active compounds read low; control for the full effect not named in the record; activity change, % (no concentration beside the values); 0.49% of 340,000 active; AID 651724; in the data active means activity change below about -65%; inconclusive means about -30% to -65%; inactive means above about -30%; further: on the % scale 0 is the no-effect control and ±100 the full control effect
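Protein mix (5X: 125 nM each GST-E1A, His-CtBP) was incubated with pinned compound 2 h at 37 deg C in dark, in 50 mM Tris pH 8.0 buffer with 300 mM NaCl. Glutathione donor and nickel acceptor beads followed; AlphaScreen signal read after 1 h.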
Six1-Eya2 inh: Six1/Eya2 interaction inhibition; AID 651725; 0.56% of 360,000 active; activity change, % (test concentration not listed); Q15475+O00167; AlphaScreen GST-Six1/His-Eya2 binding, biochemical; active compounds read low; control for the full effect not named in the record; in the data active = activity change below about -65%; inconclusive = about -30% to -65%; inactive = above about -30%; further: on the % scale 0 is the no-effect control and ±100 the full control effect
Target sequence (O00167 whole entry, looked up): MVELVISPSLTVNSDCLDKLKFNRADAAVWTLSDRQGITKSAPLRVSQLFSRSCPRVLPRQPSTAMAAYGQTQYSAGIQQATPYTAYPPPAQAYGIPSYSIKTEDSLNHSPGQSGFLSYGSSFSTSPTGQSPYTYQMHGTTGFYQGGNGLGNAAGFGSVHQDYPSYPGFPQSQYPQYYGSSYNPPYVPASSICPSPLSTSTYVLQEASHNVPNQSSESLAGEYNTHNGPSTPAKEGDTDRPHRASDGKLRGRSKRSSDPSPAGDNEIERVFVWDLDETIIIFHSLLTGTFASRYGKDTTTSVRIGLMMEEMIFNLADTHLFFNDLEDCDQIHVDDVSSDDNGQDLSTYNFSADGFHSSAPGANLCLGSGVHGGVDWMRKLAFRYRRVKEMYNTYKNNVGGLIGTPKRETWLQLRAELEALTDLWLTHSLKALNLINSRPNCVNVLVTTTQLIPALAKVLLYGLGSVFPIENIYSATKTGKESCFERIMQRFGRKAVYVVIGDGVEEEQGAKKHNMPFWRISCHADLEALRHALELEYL
Target sequence (Q15475 whole entry, looked up): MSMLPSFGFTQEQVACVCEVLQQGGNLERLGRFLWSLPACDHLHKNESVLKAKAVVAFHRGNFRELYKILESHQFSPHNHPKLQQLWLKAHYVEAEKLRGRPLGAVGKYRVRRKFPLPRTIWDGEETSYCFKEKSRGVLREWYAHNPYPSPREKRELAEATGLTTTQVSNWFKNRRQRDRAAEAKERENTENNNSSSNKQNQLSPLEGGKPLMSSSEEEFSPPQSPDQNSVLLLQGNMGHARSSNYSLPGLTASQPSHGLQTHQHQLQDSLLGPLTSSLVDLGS
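GST-Six1 + His-Eya2 (5X stock: 250/500 nM); Tris pH 8.0, 300 mM NaCl, 0.05% BSA, 0.02% Tween 20; GSH donor/Ni acceptor beads; 1 h 37 °C dark; AlphaScreen readout.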
gsp agonist: gsp mutant agonism | gsp mutant cells, cAMP HTRF, 30 min; control for the full effect not named in the record | Potency, µM (series often up to 76.9 µM), for the others: at the highest dose activation (cAMP increase), hits mostly activators | 0.13% of 340,000 active | AID 624287; active = well fitted activation curve with a large enough effect; inconclusive = small, poorly fitted or top-dose-only effect, or another doubt; inactive = no such curve, though single readings can be large or run the other way; cell line not stated here;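 further: phosphodiesterase inhibitor Ro 20-1724 added with compounds to block cAMP breakdown; potency means the concentration at half of the fitted maximal effect; nearly all actives have a fitted effect of over 60% in size; about a fifth of the inactives were tested at one dose only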
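Cells in DMEM/10% FBS with G418 were pretreated with compounds in DMSO plus […] (300 uM stock) for 30 min at 37C. cAMP was measured by HTRF (cAMP-d2 plus anti-cAMP antibody-K) after 30 min at room temperature.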
gsp antag: antagonizes gsp, the McCune-Albright syndrome mutation. gsp-mutant cells, cAMP HTRF, 30 min; control for the full effect not named in the record. Potency, µM (series often up to 76.9 µM), for inactives: at the top dose activity change, negative = inhibition, actives largely listed as inhibitors. 0.4% of 340,000 active. AID 624288; active = falling curve of any shape with a large fitted effect; inconclusive = falling curve, mostly with a smaller effect; inactive = flat or rising curve; cell line not stated here;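 further: intracellular cAMP measured with PDE inhibitor Ro 20-1724 present during compound exposure; potency means the concentration at half of the fitted maximal effect; on the % scale 0 is the no-effect control and ±100 the full control effect; nearly all actives have a fitted effect of over 65% in size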
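Measurement of cellular cAMP by homogeneous time-resolved fluorescence following a 30 min compound exposure at 37C. The PDE inhibitor […] was present throughout; the assay buffer was DPBS with 0.05% BSA and 0.005% Tween 20.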
D2 potentiator: positive allosteric modulators of human D2 dopamine receptor; DiscoveRx D2 beta-arrestin cells, luminescence, 90 min; 100% = 57 uM dopamine signal; potentiation, % (concentration not given with the values); 0.23% of 360,000 active; active = potentiation of 50% or more; inconclusive = 30% to 50%; inactive = 30% or less;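 further: compound concentration not given in the record; tested on top of an EC20 dose of dopamine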
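PathHunter beta-arrestin assay in DiscoveRx D2 cells. Compounds were added with an EC20 of dopamine (50 nM final) for 90 min at 37 deg C. Luminescence was read 1 h after detection reagent, with 57 uM dopamine as the EC100 control.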
Starred values were filed as active, the others as inactive; ? = inconclusive; · = not tested or not shown; [ ] = remark or other dose.

A first look, four compounds:
SMILES | D2 agonist | CtBP-E1A blk | Six1-Eya2 inh | gsp agonist | gsp antag | D2 potentiator
COc1ccc(C(C)=O)cc1CN1C(=O)NC2(CCCCC2C)C1=O (centres undefined) | -1.0 | -2 | 12 | 10% | -1% | -6
CCOc1ccc(C2CC(c3ccccc3)Nc3nc(N)nn32)cc1 (centres undefined) | -3.1 | 4 | -1 | -17% | 5% | -3
COc1ccccc1C(O)(c1ccccc1)c1ccccc1OC | -4.9 | 1 | 5 | ? | -5% | -4
Cc1ccccc1NC(=O)CCNS(=O)(=O)c1ccc2c(c1)CCC(=O)N2 | -4.3 | 1 | -2 | ? | 17% | -5

This part in full (from the top)
SMILES | D2 agonist | CtBP-E1A blk | Six1-Eya2 inh | gsp agonist | gsp antag | D2 potentiator
COc1ccc(C(C)=O)cc1CN1C(=O)NC2(CCCCC2C)C1=O (centres undefined) | -1.0 | -2 | 12 | 10% | -1% | -6
CCOc1ccc(C2CC(c3ccccc3)Nc3nc(N)nn32)cc1 (centres undefined) | -3.1 | 4 | -1 | -17% | 5% | -3
COc1ccccc1C(O)(c1ccccc1)c1ccccc1OC | -4.9 | 1 | 5 | ? | -5% | -4
Cc1ccccc1NC(=O)CCNS(=O)(=O)c1ccc2c(c1)CCC(=O)N2 | -4.3 | 1 | -2 | ? | 17% | -5
CCCOc1ccc(C(=O)N2CCN(Cc3ccc4c(c3)OCO4)CC2)cc1 | -2.5 | 3 | -12 | 0%[15.4 µM] | 4% | -22
COc1ccc(CN(C(=O)c2cc3ccccc3oc2=O)C2CCS(=O)(=O)C2)cc1OC (centres undefined) | -4.3 | -11 | 3 | -10% | 4% | -5
COc1ccccc1N1CCN(C(=O)c2oc3ccc(Br)cc3c2C)CC1 | -3.5 | -8 | 3 | 3%[15.4 µM] | 23% | -2
CCOc1ccc(Nc2nc3ccccc3n2C)cc1 | -8.2 | 0 | 9 | 8%[15.4 µM] | -4% | -1
Cc1nnc(NC2CCCCC2)[nH]c1=O | 1.1 | 6 | 0 | 1% | -4% | 10
COc1ccc(C(=O)N/N=C/c2c(C)[nH]c(=O)[nH]c2=O)cc1 | 6.8 | -86* | ? | -37%[inhibitor] | 3% | 2
COc1ccc(/C=C2\SC(=S)N(CCC(=O)NCCc3ccc(O)cc3)C2=O)cc1 | 4.9 | · | -6 | 3% | -20% | 0
C=CCN1c2ccc(Br)cc2C(=O)CS1(=O)=O | -0.4 | 14 | 8 | · | -14% | 3
O=S(=O)(NC1CCSc2ccccc21)c1ccc(Cl)nc1 (centres undefined) | -0.9 | -9 | -3 | -1%[15.4 µM] | 11% | -6
C[C@H](CO)N1C[C@H](C)[C@@H](CN(C)C(=O)NC2CCCCC2)Oc2ccc(NS(=O)(=O)c3ccccc3)cc2C1=O | -4.1 | 13 | 4 | · | 1% | -9
COC(=O)c1ccc(NC(=O)N2CCCC(C(=O)c3ccccc3OC)C2)cc1 (centres undefined) | -2.7 | · | 6 | -1% | -23% | -8
CCC(=O)N1CCN(c2ccc(NC(=O)c3ccco3)cc2Cl)CC1 | 6.4 | 7 | -4 | -4%[15.4 µM] | -3% | -7
CN(c1ccc(OCC(=O)OCC(=O)Nc2ccccc2)cc1)S(=O)(=O)c1cccs1 | -5.9 | 9 | 1 | -1%[15.4 µM] | -3% | 1
COC(=O)C1CCN(C(=O)c2cc(S(=O)(=O)N3CCCCC3)ccc2Cl)CC1 | -1.4 | -13 | 3 | 1% | 5% | -2
CN(C)c1ccc(C(=S)NC2CCCCC2)cc1 | -0.2 | -16 | -12 | -28% | 7% | -8
Cc1ccc(NC(=O)NCc2cccnc2)cc1 | -4.4 | 8 | 4 | 31% | 11% | -15
Cc1nnc(NC(=O)CSc2nnc(CNC(=O)c3ccc(S(=O)(=O)N(C)C)cc3)o2)s1 | 1.0 | ? | ? | 2% | 10% | -4
CCOc1ccccc1/C=C(\C#N)C1=CCCC1 | -1.6 | 4 | 10 | 19% | -10% | 2
O=c1cc(-c2cccc([N+](=O)[O-])c2)[nH][nH]1 | -6.4 | -6 | 6 | 2% | 2% | -32
Cc1cccc(-n2c(N)cc(=O)nc2SCC(=O)Nc2ccccc2)c1 | -5.3 | -4 | -1 | -48%[inhibitor] | -7% | 23
COc1ccc(N2CCN(C(=O)c3ccc(Oc4ccc(C(F)(F)F)cn4)cc3)CC2)cc1 | 2.6 | -13 | -11 | -42%[inhibitor] | -9% | -11
CCOC(=O)c1nn(-c2ccc(C)c(C)c2)c(=O)c(C#N)c1C | -0.1 | -2 | -3 | -6% | -8% | 0
CN(Cc1ccccc1)CC(O)COc1ccc(CNCCc2ccncc2)cc1 (centres undefined) | -3.4 | -3 | -1 | 21% | -15% | -27
CCC(C)(C(=O)Nc1ccc(OC)cc1)N(C)C(=O)Cn1nnnc1N (centres undefined) | 3.4 | 11 | 0 | 1% | -14% | -3
N#CC(c1ccccc1)c1ccc(=O)[nH]n1 (centres undefined) | -0.3 | 0 | 2 | -7% | 0% | -3
Cc1ccccc1NS(=O)(=O)c1cc(C(=O)Nc2cccc([N+](=O)[O-])c2)ccc1C | 1.4 | -18 | -25 | -44%[inhibitor] | ? | -10
CC1=C(C(=O)OCc2ccccc2)C(c2ccccc2-c2ccccc2)NC(=O)N1CCCCCC(=O)O (centres undefined) | 0.6 | -2 | -6 | 20% | ? | -5
CCOC(=O)C[C@H]1c2cc(F)ccc2S(=O)(=O)N1c1ccccc1 | -2.5 | · | 6 | ? | -1% | -6
CCCCC/C=C/C1=CC(=O)C[C@H](c2ccc(OC)cc2)C1 | -4.1 | · | 8 | 0% | -7% | -9
Cc1c(NC(=O)Nc2ccc3c(c2)OCO3)c(=O)n(-c2ccccc2)n1C | 2.9 | 0 | 0 | 3% | 8% | -1
CCCOc1ccc(-c2nc3c(c(=O)[nH]c(=O)n3Cc3ccccc3)n2CCO)cc1OCC | -1.8 | 10 | -9 | 4%[15.4 µM] | 6% | -4
CN(C)S(=O)(=O)c1ccc(N2CCCC2)c(C(=O)NNC(=O)COc2ccc(Cl)cc2)c1 | 0.2 | 0 | -17 | -4% | 4% | -17
CCOC(=O)C1CCCN(C(=O)c2cc(Nc3ccc(OC)cc3OC)nc3ccccc23)C1 (centres undefined) | -4.5 | -13 | -11 | -19% | ? | 7
CC(C)(C)c1ccc(-c2n[nH]c(=S)n2CCCN2CCOCC2)cc1 | -1.1 | -4 | 3 | 16% | -14% | -12
Cc1ccc(C(=O)OCC(=O)N(CCc2ccccc2)Cc2ccccc2)cc1S(=O)(=O)N1CCOCC1 | -6.4 | -4 | -6 | 8%[15.4 µM] | -12% | -9
Cc1ccc(S(=O)(=O)N2C[C@H]3C(=O)C[C@@H](c4ccccc4F)N(S(=O)(=O)c4ccc(C)cc4)[C@H]3C[C@H]2c2cccc3ccccc23)cc1 | -10 | 7 | 1 | 8% | · | -2
COC(=O)C1=C(NC(C)=O)CCS1 | -3.3 | 9 | 8 | -2% | 14% | -28
CCn1c2ccccc2c2nnc(SCCCn3c(=O)[nH]c4ccccc43)nc21 | -2.5 | 5 | 2 | ? | 4% | 0
COc1cc(/C=N/N=C2\CC3CCC2(C)C3(C)C)ccc1O (centres undefined) | -1.5 | -3 | 0 | 0% | 6% | -6
CN(C)S(=O)(=O)c1ccc(C(=O)Nc2ccc(S(=O)(=O)NC3=NCCCCC3)cc2)cc1 | -3.4 | 0 | 3 | -11% | -6% | -18
CCOC(=O)c1c(S(=O)(=O)NCC(=O)Nc2ccc(F)cc2)c(C)n(C)c1C | 3.9 | -20 | 0 | 11% | -1% | -16
COc1ccc(OC)c(S(=O)(=O)N(C)CC(=O)O)c1 | -2.3 | 3 | 2 | -56%[inhibitor] | -4% | -17
Cc1onc(-c2c(F)cccc2Cl)c1C(=O)NC(=S)Nc1c(C)n(C)n(-c2ccccc2)c1=O | -4.1 | 0 | -5 | 2%[15.4 µM] | 3% | -2
O=C(COC(=O)C1(c2ccccc2F)CCCC1)NCc1cccs1 | -2.5 | 8 | 12 | -11%[15.4 µM] | -5% | -5
O=C(NCc1cccs1)C1CCC(=O)N1C1CCCCC1 (centres undefined) | 1.2 | 2 | 1 | -10% | 5% | 0
O=S(=O)(Nc1nc2ccccc2nc1Cl)c1ccc2c(c1)OCCO2 | 1.0 | -10 | -7 | 14%[15.4 µM] | · | 5
The results go on:
SMILES | D2 agonist | CtBP-E1A blk | Six1-Eya2 inh | gsp agonist | gsp antag | D2 potentiator
O=C(NCc1ccccc1)C1=C[C@@H](c2ccccc2)C[C@@H](OCCCCO)O1 | -3.5 | -2 | -2 | 46% | 9% | -19
CC1(C)CC(Cc2nc(=S)[nH][nH]2)C(=O)O1 (centres undefined) | 5.0 | 13 | 5 | ? | 14% | -2
Cc1ccc(NC(=O)NC(=O)CSc2nnnn2C)c(C)c1 | 1.0 | -1 | -7 | -35% | 5% | -18
CN1CCN(C(=O)CCCOc2cc(=O)n(C)c3ccccc23)CC1 | -5.1 | 0 | -5 | -5% | 10% | -13
C[C@H]1CN([C@@H](C)CO)S(=O)(=O)c2ccc(Br)cc2O[C@H]1CN(C)C(=O)C1CCC1 | 3.3 | -5 | 10 | ? | · | -6
Cc1ccc(NC(=O)CCc2ccccc2)cc1S(=O)(=O)N1CCOCC1 | -2.8 | -2 | 2 | -21% | 1% | -8
COc1c2c(c(OC)c3c1c(=O)c1ccccc1n3C)OCO2 | 3.3 | 4 | 3 | 36% | -16% | -11
CCCCn1nnnc1SCC(=O)Nc1ccc2c(c1)OCCO2 | -0.3 | -1 | -1 | 7% | -1% | 2
CCOC(=O)c1ccc(NC(=O)CN2CCN(c3ccccc3)CC2)cc1 | ? | -7 | 0 | -1% | 3% | 19
CC1(C)CC(=O)C(C(c2ccco2)C2C(=O)CC(C)(C)CC2=O)C(=O)C1 | -2.2 | 41 | 13 | -16% | -3% | -10
COC(=O)c1ccc(S(=O)(=O)N2CCN(C(c3ccccc3)c3ccccc3)CC2)n1C | -4.6 | -12 | -7 | -28% | 4% | -4
O=C1CN(C(=O)COc2ccccc2)CCN1 | -2.6 | 6 | 4 | -38%[inhibitor] | -5% | -4
O=C1Nc2ccccc2C12OCC(COc1ccc(Cl)cc1)O2 (centres undefined) | -1.7 | -1 | -3 | 8% | -25% | 1
CN(c1ccccc1)S(=O)(=O)c1ccc(C(=O)N2CCN(c3ccccc3F)CC2)cc1 | -1.4 | · | -1 | -1% | -2% | -6
CC(C)C(C)(C#N)NC(=O)CSc1ncnc2sc(-c3ccccc3)cc12 (centres undefined) | 1.0 | 15 | -5 | -30% | -17% | -10
Cc1cccc(C(=O)N2CCc3cc(-c4csc(NC(=O)CN5CCCC5)n4)ccc32)c1 | 2.2 | -11 | -27 | 7%[15.4 µM] | -27% | -14
CCC(=O)N1CCc2cc(S(=O)(=O)CCC(=O)N3CCN(c4ccc(Cl)cc4)CC3)ccc21 | 1.0 | -1 | -5 | -28% | -13% | -14
